VDR inh – inhibitors of human vitamin D receptor; VDR-SRC2-3 peptide fluorescence polarization, 2 h; Potency, µM, for the others: max response, negative = inhibition, hits mostly inhibitors; 400,000 tested, 0.93% active; active = well fitted inhibition curve with a large enough effect; inconclusive = small, poorly fitted or top-dose-only effect, or another doubt; inactive = no such curve, though single readings can be large or run the other way; also: series mostly up to about 120 µM
Target sequence (P11473 whole entry, looked up): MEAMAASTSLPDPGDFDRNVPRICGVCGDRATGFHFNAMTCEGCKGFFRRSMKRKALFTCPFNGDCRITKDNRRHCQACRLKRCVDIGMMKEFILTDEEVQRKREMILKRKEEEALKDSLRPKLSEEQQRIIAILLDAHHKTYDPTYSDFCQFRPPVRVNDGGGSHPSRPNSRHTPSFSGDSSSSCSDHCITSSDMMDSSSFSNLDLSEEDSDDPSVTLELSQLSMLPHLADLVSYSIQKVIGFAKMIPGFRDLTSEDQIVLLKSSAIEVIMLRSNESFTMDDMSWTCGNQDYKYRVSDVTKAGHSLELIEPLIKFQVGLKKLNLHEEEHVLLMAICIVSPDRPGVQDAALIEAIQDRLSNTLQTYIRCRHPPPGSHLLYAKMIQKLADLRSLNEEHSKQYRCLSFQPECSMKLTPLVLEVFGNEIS
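Fluorescence polarization assay of small-molecule disruption of VDR binding to coregulator peptide SRC2-3. Compounds and controls pin-transferred, then read after 2 h incubation at ambient room temperature.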
Numbers without * were called inactive; u = inconclusive; & = joins results of further samples. % is scaled to controls: 0 for no effect and ±100 for the full control effect; potency is read from the fitted curve at half-maximal effect.

Compound	VDR inh
Cc1cc(C)n(-c2ccc(C(=O)OC(C)C(=O)Nc3ccc(C(N)=O)cc3)cc2)n1 (centres undefined)	10%
CN1CCN(C(=O)N2c3ccccc3CCc3ccccc32)CC1	2%
COc1ccccc1OCCOCCOc1ccc(C)cc1Br	-4%
Cc1nc(-c2ccccc2)sc1CCNS(=O)(=O)c1ccc(Br)cc1	6%
O=C(NCCCCNC(=O)c1c(F)c(F)c(F)c(F)c1F)c1c(F)c(F)c(F)c(F)c1F	3%
COc1ccc2c(c1)-c1nc(/N=C/c3ccc(O)c(OC)c3)sc1CC2	-21%
COc1ccc(-c2nn3c(COc4ccccc4)nnc3s2)cc1OC	-3%
Cc1c(Cl)cccc1NC(=O)Cn1nc(C)c2sc3ccccc3c2c1=O	9%
Cc1coc2c(C)c3oc(=O)cc(-c4ccccc4)c3cc12	1%
NC(=O)C1CCN(C(=O)CCNS(=O)(=O)c2ccccc2F)CC1	9%
Cc1ccc(C(=O)/C=C\Nc2ccc(C)c(C)c2)cc1	4%
Cc1nnc(SCC(=O)Nc2ccc3c(c2)OCO3)[nH]c1=O	-9%
CCS(=O)(=O)N1CCCC(C(=O)c2ccc(OC)cc2C)C1 (centres undefined)	-4%
Cc1csc(SCC(=O)c2c(N)n(CC(C)C)c(=O)n(C)c2=O)n1	-2%
O=Cc1ccc(-n2cccn2)cc1	-5%

Further results:
Compound	VDR inh
CCOC(=O)c1ccc(OS(=O)(=O)c2ccccc2)c(OC)c1	u
CCOC(=O)c1c(S(=O)(=O)NCC(=O)Nc2ccc(C)c(Cl)c2)c(C)n(C)c1C	8%
O=C(Nc1ccc(S(=O)(=O)N2CCOCC2)cc1)c1ccccc1F	-8%
CN(C)c1ccc(-c2nc3cnccn3c2Nc2ccc3c(c2)OCCO3)cc1	13%
O=C(Cn1ccnc1)c1ccc(Cl)cc1	3%
COC(=O)c1c(NC(=S)NNC(=O)c2ccc(Cl)s2)sc(C(=O)N(C)C)c1C	4%
COc1ccc(OCC(O)CN2C(=O)c3ccccc3S2(=O)=O)cc1 (centres undefined)	-9%
O=C1CC(N2CCN(c3ccccc3F)CC2)C(=O)N1c1ccc(F)cc1 (centres undefined)	5%
Cc1ccc(CNC(=O)c2c(Nc3c(C)cccc3C)sc(C(=O)c3ccccc3)c2N)cc1	3%
COc1ccc(C(=O)Nc2ccnn2C2CCN(CCC(C)c3ccc(C)o3)CC2)cc1 (centres undefined)	-23%
CN(C(=O)COC(=O)C1(C)CC1(Cl)Cl)c1c(N)n(Cc2ccccc2)c(=O)[nH]c1=O (centres undefined)	-8%
CCc1nn(CC(=O)N2CCCCC2)c(=O)c2cc3sc(C)cc3n12	-30%
COc1ccccc1C(O)c1nccn1C (centres undefined)	-15%&5%
Cc1ccc(NC(=O)C2CCCN2S(=O)(=O)c2ccc3c(c2)C(C)(C)C(=O)N3C)cc1 (centres undefined)	12%
O=C(NCc1ccc2c(c1)OCO2)c1c(-c2ccccc2)sc2ccccc12	3%

Following part.
Compound	VDR inh
COc1ccc([C@@H]2[C@@H]3C(=O)N(C(C)(C)C)C(=O)[C@@H]3[C@]3(Cc4ccc(Cl)cc4)C(=O)N(c4ccc(OC)cc4)C(=O)N23)cc1	0%
CC(=O)NC(CC(=O)NC(C)c1ccc(Cl)cc1Cl)c1ccccc1 (centres undefined)	-7%
COc1ccc(C(=O)NCC(=O)N2CCC(C)CC2)cc1OC	1%
CCCC(=O)Nc1cc(OC)c(NC(=O)NC2CCCCC2)cc1OC	-14%
COc1ccc2nc(NC(=O)CSc3nc(SC)ns3)sc2c1	14%
CSc1ccc(CN2CCN(C(C)C)C(CCO)C2)cc1 (centres undefined)	-12%
Cc1csc(-c2coc3cc(O)cc(C)c3c2=O)n1	13%
O=C(COC(=O)/C=C/c1ccc([N+](=O)[O-])cc1)NNC(=O)c1ccccc1	12%
CCOC(=O)C1=C(C)N(C[C@@H]2CC[C@@H](Cc3ccc(-c4ccccc4)cc3)O2)C(=O)NC1c1ccc(Cl)cc1 (some centres undefined)	-16%
COc1ccc(CCNc2cc(-c3ccccc3)nc3ncnn23)cc1	13%
NC(=NC(=O)c1ccc(OCC(F)(F)F)nc1)c1ccccc1	-16%
CCOc1ccc(NS(=O)(=O)c2ccc3[nH]cc(C(=O)N(C)C4CCCCC4)c(=O)c3c2)cc1	16%
Cc1ccc2nc(-c3cccnc3)oc2c1	u
CC(=O)N1c2ccccc2NC(=O)C1(C)C	-8%
Cc1ccc(NC(=O)N(CCCN2CCOCC2)Cc2cccnc2)cc1C	-4%

Reformatted with values ahead of the structure: part of the list above
VDR inh	compound
-30%	CCc1nn(CC(=O)N2CCCCC2)c(=O)c2cc3sc(C)cc3n12
-15%&5%	COc1ccccc1C(O)c1nccn1C (centres undefined)
12%	Cc1ccc(NC(=O)C2CCCN2S(=O)(=O)c2ccc3c(c2)C(C)(C)C(=O)N3C)cc1 (centres undefined)
3%	O=C(NCc1ccc2c(c1)OCO2)c1c(-c2ccccc2)sc2ccccc12
0%	COc1ccc([C@@H]2[C@@H]3C(=O)N(C(C)(C)C)C(=O)[C@@H]3[C@]3(Cc4ccc(Cl)cc4)C(=O)N(c4ccc(OC)cc4)C(=O)N23)cc1
-7%	CC(=O)NC(CC(=O)NC(C)c1ccc(Cl)cc1Cl)c1ccccc1 (centres undefined)
1%	COc1ccc(C(=O)NCC(=O)N2CCC(C)CC2)cc1OC
-14%	CCCC(=O)Nc1cc(OC)c(NC(=O)NC2CCCCC2)cc1OC
14%	COc1ccc2nc(NC(=O)CSc3nc(SC)ns3)sc2c1
-12%	CSc1ccc(CN2CCN(C(C)C)C(CCO)C2)cc1 (centres undefined)
13%	Cc1csc(-c2coc3cc(O)cc(C)c3c2=O)n1
12%	O=C(COC(=O)/C=C/c1ccc([N+](=O)[O-])cc1)NNC(=O)c1ccccc1
-16%	CCOC(=O)C1=C(C)N(C[C@@H]2CC[C@@H](Cc3ccc(-c4ccccc4)cc3)O2)C(=O)NC1c1ccc(Cl)cc1 (some centres undefined)
13%	COc1ccc(CCNc2cc(-c3ccccc3)nc3ncnn23)cc1
-16%	NC(=NC(=O)c1ccc(OCC(F)(F)F)nc1)c1ccccc1
16%	CCOc1ccc(NS(=O)(=O)c2ccc3[nH]cc(C(=O)N(C)C4CCCCC4)c(=O)c3c2)cc1

Other records follow:
Compound	VDR inh
CCOc1ccccc1NC(=O)C1CCCN(S(=O)(=O)c2cn(C)cn2)C1 (centres undefined)	-1%
Cc1c(Cc2ccccc2)c(=O)oc2c(C)c(OC(C)C(=O)NCC3CCC(C(=O)O)CC3)ccc12 (centres undefined)	-5%
CCCCN(C(=O)Cn1nnc2ccccc21)C(C(=O)NCc1ccco1)c1ccncc1 (centres undefined)	-14%
O=C(NCCCN1CCCC1=O)C1CCN(S(=O)(=O)c2ccccc2)CC1	1%
CCc1nnc(SCC(=O)Nc2ccc(Cl)cc2F)c2cc3occc3n12	11%
Cc1cc(C(=O)Nc2ccccc2N2CCOCC2)c2ccccc2n1	2%
COc1ccccc1C(C(=O)NC1CCCC1)N(C(=O)c1csnn1)C1CC1 (centres undefined)	10%
CC1(C)CC(=O)C=C(Nc2ccc(Cl)cc2)C1	1%
COC(C(=O)Nc1ccc(S(=O)(=O)Nc2c(C)cccc2C)cc1)c1ccccc1 (centres undefined)	4%
Cc1ccc(NC(=O)CC(C)CC2=NS(=O)(=O)c3ccccc3N2)cc1 (centres undefined)	6%
COCCN(C(=S)Nc1c(C)cccc1C)C(C)c1cccs1 (centres undefined)	-23%
COc1ccc(Cl)cc1S(=O)(=O)Nc1ccncc1	21%
CC1CCC2(CC1)NC(=O)N(CC(=O)NC(=O)NC1CCCC1)C2=O (centres undefined)	5%
CC1CCCN(Cc2c(O)ccc3c2O/C(=C\c2ccco2)C3=O)C1 (centres undefined)	-19%
O=C(C1CCC1)N1CCc2cc(S(=O)(=O)N3CCN(c4ccccc4)CC3)ccc21	4%

Other records follow:
Compound	VDR inh
CCOC(=O)c1cnc(SCC(=O)c2ccccc2)nc1N	u
O=C(O)CN1C(=O)C2(OCCCO2)c2ccccc21	-11%
CN(CC(=O)Nc1ccncc1)S(=O)(=O)c1ccc(Cl)cc1	-9%
CC(/C=C1\SC(=S)N(CC(=O)N2CCN(c3ccccc3)CC2)C1=O)=C\c1ccccc1	-3%
CCOC(=O)c1sc2ccccc2c1S(=O)(=O)Nc1ccc(OC)c(Cl)c1	4%
CCOc1ccc(C(=O)OC(C)C(=O)N2CCN(Cc3ccccc3)CC2)cc1 (centres undefined)	-8%
O=C(Nc1ccc2ccccc2n1)c1ccccc1Cl	-6%
Cc1oc(-c2cccc(Cl)c2)nc1CN1CCC(C(=O)NCCCN2CCN(c3cccc(Cl)c3)CC2)CC1	-3%
O=C(NCc1ccc(Cl)cc1)C(=O)c1c[nH]c2ccccc12	10%
CCOC(=O)N=S(=O)(Oc1ccc([N+](=O)[O-])cc1)c1ccccc1 (centres undefined)	1%
COc1cc(COCC(O)CN2CCCCC2C)cc(OC)c1OC (centres undefined)	-16%
COC(=O)c1ccc(C(=O)OC)c(NC(=S)N2CCN(c3ccccc3F)CC2)c1	-8%
O=C(CN1C(=O)COc2ccccc21)NCC1CCCO1 (centres undefined)	-6%
CC1CCCCN1C(=O)C(=O)c1cn(CC(=O)N2CCCCCC2)c2ccccc12 (centres undefined)	5%
COc1ccc(C)cc1NC(=O)N1CC(C)Sc2ccccc21 (centres undefined)	15%

(next part)
Structure	VDR inh
N#Cc1ccccc1Sc1ccccc1C(=O)N1CCOCC1	-4%
COc1cc(NS(=O)(=O)c2ccc3[nH]c(=O)oc3c2)cc(OC)c1	-10%
CN(c1ccccc1)S(=O)(=O)c1cccc(NC(=O)CSc2nnc(C3CC3)n2C)c1	6%
CN(C)N=C1c2cc(S(=O)(=O)N(C)C)ccc2-c2ccc(S(=O)(=O)N(C)C)cc21	-1%
Cc1ccc(SC(C)C(=O)Nc2cccc(N(C)S(C)(=O)=O)c2)cc1 (centres undefined)	6%
CCc1ccc(OCCCC(=O)Nc2nnc(C3CCCO3)s2)cc1 (centres undefined)	-1%
CCCCN(Cc1cccs1)S(=O)(=O)c1csc(C(N)=O)c1	-12%
CCOc1cccc(/C(O)=C2/C(=O)C(=O)N(Cc3ccco3)C2c2ccncc2)c1 (centres undefined)	-11%
COc1cc2c(Cc3ccccc3)cncc2cc1O	-13%
COC(=O)c1cc(C)nc(Sc2ccccc2NC(C)=O)n1	-22%
CN1C(=O)c2cccc3c(S(=O)(=O)Nc4ccccn4)ccc1c23	4%
Nc1ccc(CCc2nc3ccccc3o2)cc1	-4%
CCOc1ccc2[nH]c(=O)c(=O)[nH]c2c1	8%
COCCCN(C(=O)c1ccccc1F)c1nc(-c2ccc(OC)cc2)cs1	-7%
O=C1NC2(C=Cc3c(ccc4ccccc34)O2)Oc2ccccc21 (centres undefined)	-29%

(listing goes on)
Structure	VDR inh
CC(=O)c1ccc(Sc2ccccc2)c([N+](=O)[O-])c1	-3%
CC(C)(C)c1ccc(OCCC(=O)Nc2ccc(N3CCOCC3)cc2N2CCOCC2)cc1	-18%
COc1ccc(-c2cc3nc(C)c(CCC(=O)NCCc4ccc(Cl)cc4)c(C)n3n2)c(OC)c1	-2%
CCn1cc(CN2CCC(C(=O)Nc3cccc(-c4cccc(OC)c4)c3)CC2)cn1	-17%
Cc1cc(C)c(S(=O)(=O)N2CCN(c3ccc([N+](=O)[O-])c(NCc4ccco4)c3)CC2)c(C)c1	6%
CCN(c1cccc(C)c1)S(=O)(=O)c1ccc(N2CCCCS2(=O)=O)cc1	-5%
CCNC(=S)N/N=C(\C)c1ccc(N2CCOCC2)cc1	-1%
CCOc1ccc(-c2c(=O)n(OCc3ccccn3)c3ccccc3[n+]2[O-])cc1	6%
CCOc1ccc(C2c3c(oc4ccc(C)cc4c3=O)C(=O)N2CCCN(C)C)cc1 (centres undefined)	0%
O=C(COc1ccc(S(=O)(=O)NCc2ccccc2)cc1Cl)NCC1CCCO1 (centres undefined)	-8%
COc1c(Cl)cc(Cl)cc1CNCCO	-5%
CCOC(=O)C1(Cc2cccc(OC)c2)CCN(Cc2cccc(O)c2)CC1	-8%
CCOc1cc(C(=O)OCC(=O)c2c[nH]c3ccccc23)ccc1OCC(=O)N1CCOCC1	15%
COc1cc2c(cc1OC(C)=O)CCCCC2=O	-18%
CCCCn1nc(C(=O)N(CC)CC(=O)Nc2c(F)cccc2F)c2ccccc2c1=O	-6%

The listing continues.
Structure	VDR inh
CSc1nc(NCCCO)c2c3c(sc2n1)CN(C)CC3	-9%
Cc1nn(C2CCS(=O)(=O)C2)c(Cl)c1/C=C/C(=O)OCC(=O)Nc1ccc2c(c1)OCO2 (centres undefined)	8%
COc1cccc2c(O)c(-c3ccccc3)c(=O)[nH]c12	9%
COC(=O)CCC(=O)OC1(C)C(=O)C=C2C=C(c3ccsc3)OC=C2C1=O (centres undefined)	-19%&4%
O=C(O)c1cccc(NC(=S)NC(NC(=O)c2ccco2)C(Cl)(Cl)Cl)c1 (centres undefined)	-11%
O=C(NCc1cccs1)C1CC(c2ccccc2O)=NO1 (centres undefined)	4%
N#Cc1ccc(COC(=O)c2cccnc2Cl)cc1	8%
Cn1c(SCC(=O)N/N=C/c2ccncc2)nc2ccccc21	-2%
Cc1ccc(N2C(=O)Nc3ccccc3C2(O)C(=O)N2CCN(c3ccccn3)CC2)cc1C (centres undefined)	0%
COCCNC(=O)Cn1nc(-c2ccccc2)c2ccccc2c1=O	-2%&5%
O=C(CCC(=O)Nc1ccc(Br)cc1)N/N=C/c1ccccc1F	13%
N#Cc1c(N)nc(SCC(=O)NCCc2ccccc2)c(C#N)c1-c1cccs1	-3%
CCCCN(CCCC)C(=O)CSc1nnc(-c2cc(OC)c(OC)c(OC)c2)o1	-17%
O=C(CNC(=O)c1ccc(Cl)cc1)NCc1ccccn1	0%
Cc1cc(C)cc(N2C(=O)CSC23C(=O)N(Cc2c(F)cccc2Cl)c2ccccc23)c1 (centres undefined)	9%

Not all compounds are listed. The share of hits here may be higher or lower than overall.
